Screening data (PubChem)
TRPML1 inh: inhibitors of human TRPML1 channel | TRPML1-inducible cells, Ca2+ dye fluorescence, FDSS; active compounds read low; inhibition of EC80 agonist-evoked calcium signal | activity change, negative = inhibition, % (no concentration beside the values) | hit rate 0.02% among 390,000 | AID 624415; in the data active means activity change below about -50%; inconclusive means about -30% to -50%; inactive means above about -30%;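 also: stimulus is agonist 54-4 at its EC80 concentration; % is scaled to controls: 0 for no effect and ±100 for the full control effect; compound concentration not given in the record; the text of the record puts the active cut at -80%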
Target sequence (Q9GZU1 whole entry, looked up): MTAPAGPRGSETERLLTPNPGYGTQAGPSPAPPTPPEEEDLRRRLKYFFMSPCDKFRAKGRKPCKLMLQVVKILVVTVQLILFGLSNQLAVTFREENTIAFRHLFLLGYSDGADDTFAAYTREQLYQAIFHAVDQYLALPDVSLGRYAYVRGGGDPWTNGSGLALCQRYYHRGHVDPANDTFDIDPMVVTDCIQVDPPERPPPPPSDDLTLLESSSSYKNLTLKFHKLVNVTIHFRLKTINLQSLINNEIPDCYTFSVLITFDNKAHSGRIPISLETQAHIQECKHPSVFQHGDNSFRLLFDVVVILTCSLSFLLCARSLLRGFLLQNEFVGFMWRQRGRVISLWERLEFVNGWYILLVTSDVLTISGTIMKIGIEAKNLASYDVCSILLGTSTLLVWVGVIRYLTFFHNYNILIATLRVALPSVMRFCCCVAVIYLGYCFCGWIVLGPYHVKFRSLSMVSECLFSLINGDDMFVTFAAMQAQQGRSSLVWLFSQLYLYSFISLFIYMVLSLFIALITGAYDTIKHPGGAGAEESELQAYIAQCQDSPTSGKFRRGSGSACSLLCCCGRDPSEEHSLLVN
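Tet-induced TRPML1-DL cells loaded with Ca8 no-wash calcium dye were read kinetically on FDSS. Compound addition was followed by EC80 agonist 54-4 (4 uM final); inhibition was read over 110 s.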
TRPV1 potentiator: enhances activation of the human vanilloid receptor TRPV1 | Q8NER1 | TRPV1-expressing cells, Fluo-8 calcium influx, capsaicin EC20 potentiation; host cell line not named in the record; control for the full effect not named in the record | potentiation, % at 8.33 µM | hit rate 0.02% among 320,000; active means potentiation above 80%; inconclusive means 30% to 80%; inactive means below 30%; also: 0% is about no effect
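TRPV1-expressing cells were cultured overnight at 35.5C and loaded with Fluo-8 calcium dye for 40 to 90 min at room temperature. After a 10 s baseline, compound was added and calcium influx was read kinetically for 3 min (ex 480/em 520 nm).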
CtBP-E1A inh: blocks the CtBP interaction with E1A; AID 651724; AlphaScreen GST-E1A/His-CtBP binding, 1536-well; active compounds read low; control for the full effect not named in the record; hit rate 0.49% among 340,000; activity change, % (test concentration not listed); in the data active means activity change below about -65%; inconclusive means about -30% to -65%; inactive means above about -30%; also: % is scaled to controls: 0 for no effect and ±100 for the full control effect
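GST-E1A and His-tagged CtBP (125 nM each as 5X stock) were preincubated with pin-transferred compound for 2 h at 37 °C in the dark, then glutathione donor and nickel acceptor beads were added for 1 h before AlphaScreen reading.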
TRPML1 agonist: agonists of human TRPML1 channel; Q9GZU1; TRPML1-expressing cells, Ca2+ dye fluorescence, FDSS; host cell line not named in the record; reference of the full effect not given here; hit rate 0.12% among 410,000; activation, % (no concentration beside the values); AID 624414; in the data active = activation above about 50%; inconclusive = about 30% to 50%; inactive = below about 30%; also: 0% is about no effect; the text of the record puts the active cut at 80%
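Calcium fluorescence on an FDSS kinetic reader gave the read-out. Tet-induced TRPML1-DL cells were plated overnight, dye-loaded (Ca8 with quencher, 45-90 min, room temperature, dark), then read 110 s after compound addition, and again 110 s after 4uM final 54-4 (EC80).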
D2 potentiator: positive allosteric modulators of human D2 dopamine receptor. DiscoveRx D2 beta-arrestin cells, luminescence, 90 min; 100% = 57 uM dopamine signal. potentiation, % (test concentration not listed). hit rate 0.23% among 360,000; active = potentiation of 50% or more; inconclusive = 30% to 50%; inactive = 30% or less;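 also: compound concentration not given in the record; tested on top of an EC20 dose of dopamine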
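D2 cells co-treated with compound plus 50 nM dopamine (EC20) for 90 min at 37 deg C to detect potentiation. Beta-arrestin recruitment was read as enzyme-fragment luminescence after 1 h at ambient temperature. Full response was set by 57 uM dopamine.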
Six1-Eya2 blk: blocks human Six1 binding to Eya2; Q15475+O00167; AlphaScreen GST-Six1/His-Eya2 binding, biochemical; active compounds read low; control for the full effect not named in the record; activity change, % (concentration not given with the values); hit rate 0.56% among 360,000; AID 651725; in the data active = activity change below about -65%; inconclusive = about -30% to -65%; inactive = above about -30%; also: % is scaled to controls: 0 for no effect and ±100 for the full control effect
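GST-Six1 + His-Eya2 (5X stock: 250/500 nM); Tris pH 8.0, 300 mM NaCl, 0.05% BSA, 0.02% Tween 20; GSH donor/Ni acceptor beads; 1 h 37 °C dark; AlphaScreen readout.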
Starred values were filed as active, the others as inactive; ? = inconclusive; / = not tested or not shown; & = joins results of further samples.

SMILES	TRPML1 inh	TRPV1 potentiator	CtBP-E1A inh	TRPML1 agonist	D2 potentiator	Six1-Eya2 blk
C=C(C)Cn1c(SCC#N)nc2ccccc2c1=O	-7	1	-1	-0.8	-7	1
Cc1ccc(CC(=O)NCc2ccc3c(c2)OCO3)cc1	-15	-6	8	-0.4	-3	0
CCCc1nn2c(=O)cc(CSCC(=O)Nc3nnc(CC)s3)nc2s1	3	21	-19	0.8	-4	6
CN(C)N1C(N)=C(C#N)C(c2ccc(F)cc2)C2=C1CCCC2=O (centres undefined)	-6	19	-7	-0.3	4	-2
Cc1ccc(NC(=O)CC2Oc3ccc(C)cc3NC2=O)c(C)c1 (centres undefined)	3&-7	15	/	0.0&-0.4	-5	12
O=c1c2c3c(sc2n(CCN2CCCC2)c(=O)n1Cc1ccco1)CCCCC3	-3	25	-29	0.2	-37	-19
Cc1ccc(N(C)C(=O)c2cc(S(=O)(=O)N3CCCC3)cn2C)cc1	-3	-9	5	-0.3	-3	23
O=C(/C=C/c1cccc(O)c1)c1ccc(N2CCOCC2)cc1	-6	-14	-6	-0.4	-20	4
CCOc1ccc(C(=O)N2CCCC2)cc1OC	-10	-1	11	-0.7	15	4
CC(=N\O)/C(CN(C)C)=N/O	6	25	8	-0.3	-22	-1
COc1cccc(-c2sc3cc(OC)c(OC)cc3c2-c2ccc(OCCN3CCCCC3)cc2)c1	-14	/	?	0.4	/	-27
O=c1[nH]c(N2CCN(c3ccccc3)CC2)nc2c1CCC2	8	-6	1	2.6	-19	-5
CC12CCCC[C@@H]1CCC1C2CCC2(C)C1CC[C@@]2(O)CNCCO (some centres undefined)	57	-6	8	0.5	-6	11
CC1CCCN(C(=O)c2cc(F)c(F)cc2Cl)C1 (centres undefined)	38	-15	3	0.8	0	3
Cc1c(NC(=O)CSc2ccc3c(c2)OCCO3)c(=O)n(-c2ccccc2)n1C	0	9	0	0.4	9	5
COc1cc(/C=C/C(=O)c2c(O)cc(C)oc2=O)cc(OC)c1O	-22	6	-10	1.2	15	-14
CN(C)/C=N/c1ncc(C(=O)c2ccc3ccccc3c2)s1	-3	-8	8	-0.4	-9	5
Cc1ccc(C)c(OCC(=O)Nc2cccc(C(=O)O)c2)c1C	14	4	6	-0.2	-4	7
C=CCNc1nc(N)c([N+](=O)[O-])c(Nc2ccccc2OC)n1	17	-8	-23	2.6	-8	-7
C[C@@H]1CCCN1[C@H]1CS(=O)(=O)N[C@@H]1COCc1ccccc1	/	/	10	-0.5	-7	4
Cc1ccc(C)c(NC(=O)CSc2nnc([C@@H]3CCCN3C(=O)OC(C)(C)C)o2)c1	69	22	2	-0.3	-19	-1
Cc1ccc(S(=O)(=O)CC(=O)N2CC(C)OC(C)C2)cc1 (centres undefined)	-15	1	1	0.7	-15	6
COc1ccc(S(=O)(=O)N2CCOCC2)cc1NC(=O)CCc1cc(OC)c(OC)c(OC)c1	-6	-1	-2	0.0	-4	0
CCCCN1C(=O)C(CC(=O)NCc2cccs2)CC(C(=O)N2CCCCCC2)=C1C (centres undefined)	/	/	26	-0.7	/	22
Cc1ccc(S(=O)(=O)N2C(=O)CCC2C(N)=O)cc1 (centres undefined)	/	10	/	/	-62	-20
Next compounds follow.
SMILES	TRPML1 inh	TRPV1 potentiator	CtBP-E1A inh	TRPML1 agonist	D2 potentiator	Six1-Eya2 blk
COc1cc2c(cc1OC)CN(C(=O)c1ccc3nc[nH]c3c1)CC2	10	-4	-8	4.3	2	-1
CC(C)(C)NC(=O)C(=O)NNC(=O)c1cccc([N+](=O)[O-])c1	-15	-1	-15	0.0	4	4
COC(=O)c1cc(-c2ccc(S(=O)(=O)N3CCCC3)cc2)c(C(F)(F)F)s1	29	-1	17	1.7	-7	10
C=CCOc1ccccc1CNc1ccc2c(c1)OCCO2	2	-6	-4	1.1	-4	-3
CCOC(=O)C1CCN(S(=O)(=O)c2ccc(C(=O)OC)cc2)CC1	-14	-10	6	-0.4	-1	0
Cc1cc(C)n(CCc2nc(-c3ccc(F)cc3)cs2)n1	7	-10	-1	0.8	-4	4
CC(=O)c1cccc(NC(=O)c2nccnc2C(=O)O)c1	-27	19	4	0.1	-5	4
COc1ccc(C2=CSC3=C(C(=O)c4cccc(S(=O)(=O)N(C)C)c4)CCN23)cc1	12	5	-4	-0.1	-8	-7
CSCCC(NC(=O)COc1ccccc1)C(=O)N1CCOCC1 (centres undefined)	-11	8	0	-0.2	-4	2
COc1ccc2c(=O)c3c(=O)n(CCc4ccccc4)c(C)nc3oc2c1	15	/	-7	0.6	0	0
O=C(Nc1ccc(C(F)(F)F)cc1)C1CCCCN1S(=O)(=O)c1ccccc1 (centres undefined)	38	10	0	2.1	-3	9
CCC1(c2ccccc2)SC(=O)NC1=O (centres undefined)	22	/	-4	1.7	-2	14
Cc1cc(OCC(=O)Nc2ccc3c(c2)OCCO3)cc(C)c1Cl	33	3	2	5.3	-17	-1
O=C(NCCC1CCCCN1S(=O)(=O)c1ccccc1)C(=O)Nc1ccc(F)cc1F (centres undefined)	-3	-6	4	0.0	-3	5
Cc1cc(S(=O)(=O)N2CCN=C2c2ccccc2)c(Cl)cc1Cl	-5	-5	8	0.7	18	4
Cc1ccc(S(=O)(=O)NC(CC(C)C)C(=O)N2CCC(C)CC2)cc1 (centres undefined)	-18	-26	/	2.4	18	10
COc1ccc(N2CCN(Cc3nc(-c4ccccc4)no3)CC2)cc1	19	1	-10	-1.3	6	?
C/C(=N\N=C(N)N)c1ccc(Cl)cc1Cl	6	-9	1	10	-39	16
CCCn1c(N)c(N(CCOC)C(=O)c2ccc(-c3ccc(Cl)cc3)o2)c(=O)[nH]c1=O	-4	-1	2	-0.4	4	7
CN1CC(=O)N/C1=N\C(=O)Nc1ccc(O)cc1	-5	-1	/	2.9	-5	-13
Cc1cccc(-c2nc3cc([N+](=O)[O-])ccc3o2)c1	5	24	-4	-1.1	5	7
CC(C)CCNC(=O)C1C2C=CC3(CN(Cc4ccccc4Cl)C(=O)C13)O2 (centres undefined)	68	28	2	-0.9	-5	-2
CC1CCCN(C(=O)c2cc(S(=O)(=O)N3CCCCC3)c[nH]2)C1 (centres undefined)	-5	17	6	-0.2	1	8
COc1ccccc1N1CCN(C(c2ccc(Cl)cc2)c2nnnn2C(C)(C)C)CC1 (centres undefined)	13	0	-23	19	-27	-22
CC(=O)OC1CC(n2ccc(NC(=O)c3ccccc3)nc2=O)OC1CO (centres undefined)	21	-1	4	-0.7	-7	3
Other entries.
SMILES	TRPML1 inh	TRPV1 potentiator	CtBP-E1A inh	TRPML1 agonist	D2 potentiator	Six1-Eya2 blk
CC(C)(CN1CCN(Cc2ccccc2)CC1)NS(=O)(=O)c1ccc(Cl)cc1	37	13	/	-0.3	-27	-2
COCC(=O)Nc1nc2n(n1)C(c1ccccc1Cl)CC(c1ccc(OC)cc1)N2 (centres undefined)	1	0	-4	-0.3	8	-1
CCCCNS(=O)(=O)c1ccc(OC)c(C)c1	-8	17	5	1.3	-7	5
CCN(CC)c1nc(-c2ccccc2)nc2ccccc12	9	4	31	2.3	-4	33
COCCCNC(=S)NNC(=S)Nc1ccc(F)cc1F	37	-11	-2	-0.2	-16	1
O=C1NC(=O)C2(CCCc3ccc([N+](=O)[O-])cc32)N1 (centres undefined)	2	/	5	-0.7	-3	1
NC(c1csc(Nc2cnccn2)n1)C1CCCCC1 (centres undefined)	/	/	-70*	0.1	-10	-26
CN1CCC(=NNC(=O)CSc2ccc(Cl)cc2)CC1	30	5	-11	0.0	-16	0
Cc1ccc(SCCN2CCC(C)CCC2=O)cc1 (centres undefined)	-5	-10	3	-1.2&-1.2	-16	-1
CC[C@H](C)C(C(=O)N1CCN(C(=O)OC(C)(C)C)CC1)n1cc(C(CO)NC(=O)OC(C)(C)C)nn1 (some centres undefined)	-8	?	-1	-0.7	-5	-1
Cc1cccc(N(CC(=O)NC2CC3CCC2C3)S(=O)(=O)c2ccccc2)c1 (centres undefined)	36	-12	-2	2.8	-8	-2
Cc1nn(C)c(NC(=O)c2ccccc2Cl)c1Cl	12	-21	2	2.7	-2	3
CCC(=NCc1ccccc1)c1c(C(F)(F)F)[nH]n(-c2nc3ccccc3s2)c1=O	-5	2	-1	0.9	-5	2

Among those listed so far, these have an aryl methoxy group.
SMILES	TRPML1 inh	TRPV1 potentiator	CtBP-E1A inh	TRPML1 agonist	D2 potentiator	Six1-Eya2 blk
CCOc1ccc(C(=O)N2CCCC2)cc1OC	-10	-1	11	-0.7	15	4
COc1cccc(-c2sc3cc(OC)c(OC)cc3c2-c2ccc(OCCN3CCCCC3)cc2)c1	-14	/	?	0.4	/	-27
COc1cc(/C=C/C(=O)c2c(O)cc(C)oc2=O)cc(OC)c1O	-22	6	-10	1.2	15	-14
C=CCNc1nc(N)c([N+](=O)[O-])c(Nc2ccccc2OC)n1	17	-8	-23	2.6	-8	-7
COc1ccc(S(=O)(=O)N2CCOCC2)cc1NC(=O)CCc1cc(OC)c(OC)c(OC)c1	-6	-1	-2	0.0	-4	0
COc1cc2c(cc1OC)CN(C(=O)c1ccc3nc[nH]c3c1)CC2	10	-4	-8	4.3	2	-1
COc1ccc(C2=CSC3=C(C(=O)c4cccc(S(=O)(=O)N(C)C)c4)CCN23)cc1	12	5	-4	-0.1	-8	-7
COc1ccc2c(=O)c3c(=O)n(CCc4ccccc4)c(C)nc3oc2c1	15	/	-7	0.6	0	0
COc1ccc(N2CCN(Cc3nc(-c4ccccc4)no3)CC2)cc1	19	1	-10	-1.3	6	?
COc1ccccc1N1CCN(C(c2ccc(Cl)cc2)c2nnnn2C(C)(C)C)CC1 (centres undefined)	13	0	-23	19	-27	-22
COCC(=O)Nc1nc2n(n1)C(c1ccccc1Cl)CC(c1ccc(OC)cc1)N2 (centres undefined)	1	0	-4	-0.3	8	-1
CCCCNS(=O)(=O)c1ccc(OC)c(C)c1	-8	17	5	1.3	-7	5
